Ecoli rRNA inh: inhibits bacterial ribosomal RNA function over humanized ribosomes; AID 720706; GFP signal change (wild-type ribosome), % (no concentration beside the values); E. coli WT GFP vs humanized-ribosome RFP mutants, fluorescence, 24 h; hits give low values; DMSO median 0, no signal -100; 350,000 compounds, 1.6% hits;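 active = significant combined selectivity score with lowered wild-type GFP, culture density cut under 30%, mutant RFP and density less affected; inactive = any of these conditions unmet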; also: one replicate is shown; some compounds called inactive have numbers as strong as hits
Ecoli rRNA inh OD600: also measured in Ecoli rRNA inh; calls as there; OD600 change, %; measured here: OD600 growth;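 optical density of the mix in the first replicate; 0 = DMSO median and -100 = no signal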
Ecoli rRNA inh RFP: recorded beside Ecoli rRNA inh, whose call it bears; RFP signal change, %; measured here: RFP humanized mutant strains;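 first replicate; 0 = DMSO median and -100 = no signal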
Starred values were filed as active, the others as inactive; ! = repeats disagree. This is a subset. The share of hits here may be higher or lower than overall.

SMILES	Ecoli rRNA inh	Ecoli rRNA inh OD600	Ecoli rRNA inh RFP
O=C(Nc1ccccc1)c1cc(C2CCCN(C(=O)c3ccc4c(c3)CCO4)C2)on1 (stereo unspecified)	-9	-44	-1.8
Oc1ccc(C[C@@H](CN2CCCC2CN2C(=S)NC[C@@H]2Cc2ccccc2)N2C[C@H](Cc3ccccc3)N(CC3CCCCCC3)C2=S)cc1 (stereo partly specified)	23	28	13
CN(C)CC(=O)N1[C@H](CO)[C@@H](c2ccccc2)C12CN(CCC(F)(F)F)C2	2	9	-0.4
C[C@H](CO)N1C[C@H](C)[C@@H](CN(C)S(=O)(=O)c2ccc(F)cc2)Oc2ccc(NS(=O)(=O)c3ccc(Cl)cc3)cc2CC1=O	-5	-2	0.7
CO[C@H]1CN(C)C(=O)c2ccc(NC(=O)Nc3cc(F)ccc3F)cc2OC[C@H](C)N(C)C[C@@H]1C	1	-4	0.5
O=C(NC[C@@H]1[C@@H](c2ccccc2)[C@@H](CO)N1Cc1cccnc1)C1CCCCC1	1	6	-2.3
COC(=O)C[C@@H]1CC[C@@H]2[C@@H](COc3ccc(NC(=O)c4ccc(F)c(F)c4)cc3C(=O)N2C)O1	-7	-4	-3.1
C[C@@H]1CN([C@@H](C)CO)C(=O)c2cc(/C=C/c3ccccc3)cnc2O[C@@H]1CN(C)Cc1cncnc1	-1	3	-0.6
Cc1cc2c(nc1C)CCCN2S(=O)(=O)c1c(C)noc1C	-4	-9	4.3
CC(C)C#Cc1ccc([C@H]2[C@H](CO)N3CCCCN(C(=O)c4ccc(F)cc4)C[C@@H]23)cc1	-59	-77	-10
Cc1[nH]c2ccccc2c1CC(=O)Nc1ccc(N(C)c2cccnc2)c(-c2cccc(Cl)c2)c1	-4	-1	4.7
C/C=C/c1cnc2c(c1)C(=O)N([C@H](C)CO)C[C@@H](C)[C@H](CN(C)C(=O)C1CCOCC1)O2	2	4	-1.9
CCC(=O)Nc1ccc2c(c1)C(=O)N(C)[C@H]1CC[C@H](CC(=O)NC3CCCC3)O[C@H]1CO2	1	10	-3.3
C[C@@H](NC(=O)C[C@H]1C[C@@H]2c3cc(NC(=O)NC4CCCC4)ccc3O[C@@H]2[C@H](CO)O1)c1ccccc1	-2	25	0.0
C[C@@H]1CN([C@@H](C)CO)C(=O)c2cc(NC(=O)c3ccccc3)ccc2O[C@@H](C)CCCCO[C@H]1CN(C)S(=O)(=O)c1ccccc1	-5	-6	0.1
COCCNC(=O)C1(C)CCN(C(=O)c2oc3ccccc3c2C)C1 (stereo unspecified)	3	4	-3.2
C[C@@H]1CCCCO[C@H](CN(C)C(=O)C2CCCCC2)[C@H](C)CN([C@@H](C)CO)C(=O)c2cc(NC(=O)CCCN(C)C)ccc2O1	0	1	-0.9
COc1ccccc1-c1ccc([C@H]2[C@@H](CO)N3CCCCN(S(=O)(=O)c4cn(C)cn4)C[C@H]23)cc1	4	12	-3.7
COc1cccc(C#Cc2ccc([C@H]3[C@H]4CN(S(=O)(=O)c5ccccc5C)CC(=O)N4[C@H]3CO)cc2)c1	4	19	-4.7
CCC(=O)Nc1ccc2c(c1)C(=O)N(C)[C@H]1CC[C@@H](CC(=O)N3CCCCC3)O[C@@H]1CO2	4	9	-0.8
C[C@@H]1CN([C@@H](C)CO)C(=O)c2ccccc2-c2ccccc2CO[C@@H]1CN(C)Cc1cccc2c1OCCCO2	0	-1	1.2
CCOC(=O)C1=C[C@@H](C2CCCCC2)N(S(=O)(=O)c2ccc([N+](=O)[O-])cc2)[C@H]1c1ccccc1	8	10	4.3
CCCN(C)C[C@H]1OCCCC[C@@H](C)Oc2ccc(NS(=O)(=O)c3ccc(OC)cc3)cc2C(=O)N([C@H](C)CO)C[C@H]1C	2	4	-0.6
COc1ccc(NC(=O)Nc2ccc3c(c2)CC(=O)N([C@@H](C)CO)C[C@@H](C)[C@@H](CN(C)C(=O)Nc2ccccc2)O3)cc1	1	5	1.9
CC(C)NC(=O)N(C)C[C@H]1Oc2ccc(NC(=O)C3CCCCC3)cc2CC(=O)N([C@H](C)CO)C[C@H]1C	3	4	-1.5

(further entries)
SMILES	Ecoli rRNA inh	Ecoli rRNA inh OD600	Ecoli rRNA inh RFP
O=C(C[C@H]1C=C[C@H](NC(=O)Cc2ccccn2)[C@H](CO)O1)NCCc1ccncc1	2	4	0.2
O=C(Nc1ccc(F)cc1)N[C@H]1C=C[C@@H](CC(=O)N2CCOCC2)O[C@@H]1CO	8	16	0.0
CCNC(=O)C1(C)CCN(C(=O)c2ccc(C#N)cc2)C1 (stereo unspecified)	7	15	1.1
CC1(C(=O)NS(=O)(=O)c2ccccc2)CCN1C(=O)CC1CCCC1 (stereo unspecified)	9	13	-0.7
C[C@@H]1ON(C)[C@H]2C[C@H]3c4cc(N5CCN(C)CC5)ccc4CCN3C[C@@H]12	24	23	1.7
CS(=O)(=O)N1CC(=O)N2[C@H](CO)[C@@H](c3ccc(C#CCC4CCCC4)cc3)[C@H]2C1	-6	-24	1.0
CC1(Oc2ccccc2)CCN(Cc2csc3ccccc23)C1 (stereo unspecified)	-3	-5	0.3
C[C@@H]1CN([C@@H](C)CO)C(=O)c2c(c3ccccc3n2C)-c2ccccc2CO[C@H]1CN(C)C(=O)c1cc(Cl)cc(Cl)c1	-1	-2	-5.2
Cc1ccc(S(=O)(=O)Nc2cccc3c2O[C@@H](CN(C)C(=O)NC2CCCCC2)[C@@H](C)CN([C@@H](C)CO)C3=O)cc1	1	11	-0.4
CNC[C@@H]1Oc2ncc(-c3cccc(C(=O)N(C)C)c3)cc2C(=O)N([C@@H](C)CO)C[C@@H]1C	7	13	-2.2
COc1ccc2c3c([nH]c2c1)[C@H](CO)N(Cc1nccs1)CC31CCN(Cc2ccncc2)CC1	-2	-5	8.0
C[C@@H]1CN([C@@H](C)CO)C(=O)c2cc(-c3cccnc3)cnc2O[C@H]1CN(C)C(=O)Nc1ccc(C(F)(F)F)cc1	5	-5	2.2
C[C@@H]1CCCCO[C@@H](CN(C)Cc2ccc(Cl)c(Cl)c2)[C@@H](C)CN([C@@H](C)CO)C(=O)c2cc(NC(=O)C3CCCCC3)ccc2O1	4	10	-2.2
C[C@@H]1COc2cc(N3CCC[C@H]3CO)ccc2S(=O)(=O)N1	13	15	4.0
CC(C)CC#Cc1ccc2c(c1)O[C@H](CN(C)C(=O)C1CCCCC1)[C@H](C)CN([C@H](C)CO)S2(=O)=O	1	4	-2.4
COCCNC(=O)C[C@H]1CC[C@@H]2[C@H](COc3ccc(NC(C)=O)cc3C(=O)N2C)O1	0	5	-0.9
C[C@@H]1CN([C@@H](C)CO)C(=O)c2cc(N(C)C)ccc2O[C@@H](C)CCCCO[C@@H]1CN(C)C(=O)Nc1ccccc1	0	4	-0.3
Cc1ccc(S(=O)(=O)N[C@@H]2C=C[C@@H](CC(=O)NCCN3CCCCC3)O[C@@H]2CO)cc1	2	0	-0.8
CN(CCO)c1cccc2c1S(=O)(=O)N[C@@H](Cc1ccccc1)CO2	-1	9	8.2
Cc1ccc(C(=O)CCC(=O)N2CCN(C/C=C/c3ccccc3)CC2)cc1	-3	-6	-2.8
C[C@H]1CCCCO[C@@H](CN(C)C)[C@@H](C)CN([C@@H](C)CO)C(=O)c2cc(N(C)C)ccc2O1	1	5	-2.5
COc1ccc(S(=O)(=O)Nc2ccc3c(c2)C(=O)N([C@H](C)CO)C[C@H](C)[C@H](CN(C)C(=O)Nc2ccc(F)cc2)OCCCC[C@H](C)O3)cc1	-3	-1	0.0
COc1ccccc1-c1ccccc1[C@@H]1[C@H](C#N)N(C(=O)C2CCC2)[C@H]1CO	-4	1	-1.6
COc1ccc(S(=O)(=O)N2CCC(C(=O)NCCC(=O)Nc3ccccc3OC)CC2)cc1	-1	-4	-3.6
C[C@@H]1CN([C@H](C)CO)C(=O)c2cc(NC(=O)C3CCCCC3)ccc2O[C@@H](C)CCCCO[C@H]1CN(C)C(=O)Nc1ccc(F)cc1	-1	-1	1.3

Four records drawn at random from those above:
SMILES	Ecoli rRNA inh	Ecoli rRNA inh OD600	Ecoli rRNA inh RFP
CCC(=O)Nc1ccc2c(c1)C(=O)N(C)[C@H]1CC[C@H](CC(=O)NC3CCCC3)O[C@H]1CO2	1	10	-3.3
COCCNC(=O)C1(C)CCN(C(=O)c2oc3ccccc3c2C)C1 (stereo unspecified)	3	4	-3.2
C[C@@H]1CN([C@@H](C)CO)C(=O)c2cc(N(C)C)ccc2O[C@@H](C)CCCCO[C@@H]1CN(C)C(=O)Nc1ccccc1	0	4	-0.3
COc1ccc(S(=O)(=O)N2CCC(C(=O)NCCC(=O)Nc3ccccc3OC)CC2)cc1	-1	-4	-3.6

The listing picks up, repeating the 6 entries before the break.
SMILES	Ecoli rRNA inh	Ecoli rRNA inh OD600	Ecoli rRNA inh RFP
Cc1ccc(C(=O)CCC(=O)N2CCN(C/C=C/c3ccccc3)CC2)cc1	-3	-6	-2.8
C[C@H]1CCCCO[C@@H](CN(C)C)[C@@H](C)CN([C@@H](C)CO)C(=O)c2cc(N(C)C)ccc2O1	1	5	-2.5
COc1ccc(S(=O)(=O)Nc2ccc3c(c2)C(=O)N([C@H](C)CO)C[C@H](C)[C@H](CN(C)C(=O)Nc2ccc(F)cc2)OCCCC[C@H](C)O3)cc1	-3	-1	0.0
COc1ccccc1-c1ccccc1[C@@H]1[C@H](C#N)N(C(=O)C2CCC2)[C@H]1CO	-4	1	-1.6
COc1ccc(S(=O)(=O)N2CCC(C(=O)NCCC(=O)Nc3ccccc3OC)CC2)cc1	-1	-4	-3.6
C[C@@H]1CN([C@H](C)CO)C(=O)c2cc(NC(=O)C3CCCCC3)ccc2O[C@@H](C)CCCCO[C@H]1CN(C)C(=O)Nc1ccc(F)cc1	-1	-1	1.3
O=C(Nc1cccc(Cl)c1)N1C[C@H]2[C@@H](c3ccccc31)[C@H](CO)N2C(=O)C1CCCC1	-6	3	1.0
COc1ccccc1N1CCN(S(=O)(=O)c2ccc([N+](=O)[O-])cc2)CC1	-11	4	-2.4
O=C(NC1Cc2ccccc2C1)[C@H]1[C@H](CO)[C@H]2Cn3c(cccc3=O)[C@H]2N1C(=O)c1cnccn1	3	9	1.6
CC(C)NC(=O)Nc1cccc2c1O[C@@H](CN(C)Cc1ccc(-c3ccccc3)cc1)[C@@H](C)CN([C@H](C)CO)C2=O	-3	-4	2.6
CCCC(=O)Nc1ccc2c(c1)C(=O)N(C)[C@@H]1CC[C@H](CC(=O)NCCc3ccncc3)O[C@H]1CO2	2	-1	-1.1
CN(C)C(=O)[C@H]1[C@H](CO)[C@H]2Cn3c(ccc(C4=CCCC4)c3=O)[C@@H]1N2C(=O)Nc1ccccc1	0	3	1.3
CCCC(=O)Nc1ccc2c(c1)C(=O)N(C)[C@H]1CC[C@H](CC(=O)NCc3ccccc3)O[C@H]1CO2	4	2	-0.8
CCOC(=O)[C@]12CCC=C1N(Cc1ccco1)C(=O)[C@H](CC(=O)NCc1cccs1)C2	18	22	4.5
COc1cccc(CNc2nc(NCc3ccccc3)nc3ccsc23)c1	-69	-79	-27
O=C(c1cccs1)N1C[C@@H](O)[C@H](n2cc(C3CC3)nn2)C[C@@H]1c1ccc(Cl)cc1	1	7	-2.1
COCC(=O)Nc1ccc2c(c1)C(=O)N(C)C[C@@H](OC)[C@@H](C)CN(CCC(F)(F)F)[C@@H](C)CO2	3	0	-3.2
Cc1ccc([C@@H]2C[C@H]3[C@@H](CN2S(=O)(=O)c2ccc(Cl)cc2)C(=O)C[C@@H](c2ccc(Cl)cc2)N3S(=O)(=O)c2ccccc2C)cc1	22	16	4.1
COc1ccc2c3c(n(C)c2c1)[C@@H](CO)N(C)CC31CN(C(=O)C2CCC2)C1	0	0	-0.5
C[C@@H]1CN([C@@H](C)CO)C(=O)Cc2cc(NS(=O)(=O)c3ccc(Cl)cc3)ccc2O[C@@H]1CN(C)C(=O)Nc1ccc(F)cc1	2	-3	1.4
C[C@@H]1CCCCO[C@@H](CN(C)S(=O)(=O)c2ccccc2)[C@H](C)CN([C@@H](C)CO)C(=O)c2cc(NC(=O)c3ccncc3)ccc2O1	-4	-12	3.8
C[C@@H]1CN([C@H](C)CO)C(=O)c2c(c3ccccc3n2C)-c2ccccc2CO[C@@H]1CN(C)C(=O)[C@@H]1CCCN1C	1	3	-1.0
CN1C(=O)c2cc(NC(=O)Nc3cccc(Cl)c3)ccc2OC[C@H]2O[C@H](CC(=O)O)CC[C@@H]21	4	12	4.6
C[C@H]1CN([C@@H](C)CO)C(=O)Cc2cc(NC(=O)CCCCCC(=O)Nc3ccccc3N)ccc2O[C@H]1CN(C)Cc1ccc(C(F)(F)F)cc1	-4	-1	-2.1
Cc1noc(C)c1S(=O)(=O)Nc1ccc2c(c1)C(=O)N([C@@H](C)CO)C[C@H](C)[C@@H](CN(C)Cc1ccncc1)OCCCC[C@H](C)O2	-3	-2	1.2
COCC#Cc1ccc2c(c1)O[C@H](CN(C)C(=O)c1ccccc1)[C@@H](C)CN([C@H](C)CO)S2(=O)=O	-19*!	-8.5*!	3.4*!
CN(C)C(=O)c1ccc(-c2ccc3c(c2)[C@H]2[C@H](CCN2C(=O)c2ccc4c(c2)OCO4)[C@@H](CO)N3)cc1	-3	-12	2.6
Cc1noc(C)c1NC(=O)Nc1ccc2c(c1)CC(=O)N([C@H](C)CO)C[C@@H](C)[C@H](CN(C)Cc1ccncc1)O2	1	6	-1.5
COCC(=O)Nc1ccc2c(c1)C(=O)N(C)[C@H]1CC[C@H](CC(=O)NCc3ccccc3)O[C@H]1CO2	4	5	-2.8
